# Insulin prom inh: inhibitors of insulin promoter-driven GFP, primary screen, imaging, TRM-6 cells (human fetal islet line), eGFP reporter, cell count; reporter expression induced with tamoxifen; inhibition, % at 2 µM; 130,000 tested, 0.9% active; AID 1273, 2008;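 active = inhibition above the mean plus 3 SD, with well images judged a real hit on visual review, cut at about 60% in these data, passing the limit was not always enough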
# PKD1 kinase inh: inhibitors of human PKD1 kinase, biochemical, fluorescence polarization; PKD1 kinase fluorescence polarization assay; Serine/threonine-protein kinase D1 (Homo sapiens), Q15139; 200,000 tested, 0.056% active; inhibition, %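 (about 10 µM by stock and volumes)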;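 active = inhibition of 50% or more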;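 also: controls were vehicle for no effect and a reference inhibitor for full effect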
# GALR2 agonist: GALR2 receptor agonists, primary screen, cell-based | activation, %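 (tested at 5 µM)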 | Galanin receptor type 2 (Homo sapiens), O43603 | 140,000 tested, 0.48% active | GALR2-expressing cells, agonist activation read-out;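 active = above mean plus 3 SD of all compounds, about 5% in these data, not always enough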;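 also: 0% = vehicle buffer wells and 100% = reference agonist at full effect; tested in CHO reporter cells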
# Target sequence (O43603 whole entry, looked up): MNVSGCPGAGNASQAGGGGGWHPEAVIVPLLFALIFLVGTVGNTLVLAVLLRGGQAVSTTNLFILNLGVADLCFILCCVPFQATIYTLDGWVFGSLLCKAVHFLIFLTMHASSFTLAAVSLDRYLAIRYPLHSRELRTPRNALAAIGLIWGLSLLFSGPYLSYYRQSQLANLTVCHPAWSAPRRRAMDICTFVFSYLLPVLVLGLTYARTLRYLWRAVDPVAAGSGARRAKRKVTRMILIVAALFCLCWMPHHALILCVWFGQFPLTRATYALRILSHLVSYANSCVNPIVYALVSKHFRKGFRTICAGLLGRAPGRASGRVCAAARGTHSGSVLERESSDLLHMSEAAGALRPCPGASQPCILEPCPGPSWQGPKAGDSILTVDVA
# RGS16-Gao: modulators of RGS16 binding to Galphao, primary screen, biochemical, human proteins, multiplexed bead flow cytometry; Regulator of G-protein signaling 16 (Homo sapiens) + Guanine nucleotide-binding protein …; bead-based flow cytometry RGS16-Galphao binding, fluorescence; actives lie on both sides; binding response (% of control), % at 10 µM; 220,000 tested, 0.38% active; AID 1441, 2008;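 active = below 25% or above 175%, edge rows of some plates excepted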;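 also: Galphao activated by GDP with aluminum fluoride before binding; 100% = wells without compound and 0% = beads without RGS; some results beyond the cut were filed as inactive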
# Target sequence (O15492 whole entry, looked up): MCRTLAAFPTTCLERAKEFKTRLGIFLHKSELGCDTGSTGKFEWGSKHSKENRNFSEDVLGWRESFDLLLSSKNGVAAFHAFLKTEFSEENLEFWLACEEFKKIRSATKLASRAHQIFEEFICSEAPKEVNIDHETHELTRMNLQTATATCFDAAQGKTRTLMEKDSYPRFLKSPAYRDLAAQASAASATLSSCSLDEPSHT
# Target sequence (P09471 whole entry, looked up): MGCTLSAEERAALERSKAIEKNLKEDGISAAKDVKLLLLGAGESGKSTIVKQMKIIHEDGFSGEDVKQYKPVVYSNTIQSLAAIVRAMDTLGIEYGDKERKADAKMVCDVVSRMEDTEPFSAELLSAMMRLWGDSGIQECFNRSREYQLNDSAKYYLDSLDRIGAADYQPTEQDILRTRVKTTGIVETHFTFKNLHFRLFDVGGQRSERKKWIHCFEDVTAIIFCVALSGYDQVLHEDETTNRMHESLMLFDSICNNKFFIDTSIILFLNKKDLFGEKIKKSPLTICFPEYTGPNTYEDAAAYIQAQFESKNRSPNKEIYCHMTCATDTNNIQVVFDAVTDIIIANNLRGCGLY
# HSV augment: enhancers of HSV replication in host cells, fold increase, host cell viability; maximum fold increase; HSV replication augmentation in cells; 220,000 tested, 0.005% active;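 active = peak rise of 1.5-fold or more in the series; tested in PC3 cells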;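 also: first round at 10 µM; read as green reporter fluorescence; hits show the peak of a series up to 25 µM; 1 = signal of infected wells without compound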
# Insulin prom inh cell count: also measured in Insulin prom inh; calls as there; normalized cell count, %; measured here: cell count, toxicity; reference of the scale not given here;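 cells exposed to compound for 48 h; stained nuclei by imaging scaled within each plate; lower means fewer cells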
# HSV augment primary fold: recorded beside HSV augment, whose call it bears; fold increase; compound at 10 µM; measured here: primary screen fold increase 10 uM; tested in PC3 cells;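 GFP signal in the first replicate; 1 = infected wells without compound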
# * = called active by the depositor; i = inactive; nt = not tested or not shown.
SMILES,Insulin prom inh,Insulin prom inh cell count,PKD1 kinase inh,GALR2 agonist,RGS16-Gao,HSV augment,HSV augment primary fold
CCc1cccc2c(N=O)c(O)[nH]c12,-48,114,8,-0.2,97,i,0.9
Cc1ccc(S(=O)(=O)c2cc3c(=O)n4cccc(C)c4nc3n(CC3CCCO3)c2=N)cc1C (stereo not given),nt,nt,nt,nt,97,i,0.87
COc1ccc(S(=O)(=O)Nc2cc(C(=O)NC(C)C)ccc2N2CCOCC2)cc1,35,64,-2,-3.0,104,i,0.68
CCc1nn(CC(=O)NCCCN(CC)c2cccc(C)c2)c(=O)c2cc3occc3n12,-64,132,2,nt,111,i,0.91
COc1ccc(-c2nnc(N(C)C(=O)c3ccno3)s2)cc1,0,144,7,-0.9,58,i,0.9
CCOC(=O)N1CCN(c2c(NCC3CCCO3)c(=O)c2=O)CC1 (stereo not given),nt,nt,-4,-1.1,101,i,0.77
Cc1ccc(-c2noc(-c3cc4ccccc4oc3=O)n2)cc1,-10,107,13,-2.2,103,i,1.1
O=C(N/N=C\C=C\c1ccc2c(c1)OCO2)C1COc2cc3ccccc3cc2O1 (stereo not given),-62,112,-4,-2.7,102,i,1.2
Cc1ccc(Cl)cc1N1CCN(C(=S)NCc2ccco2)CC1,26,105,-2,nt,100,i,1
O=C(Cc1ccccc1)N/N=C\c1ccc(Br)o1,-53,115,9,-1.8,101,i,0.88
C=C1CCN(C(CC(C)C)C(=O)OC)S(=O)(=O)c2ccccc21 (stereo not given),nt,nt,nt,nt,110,i,1
CCOC(=O)c1cc(C(=O)OCC)cc(-n2c(C)cc(C(=O)CN3CCOCC3)c2C)c1,27,56,-15,-0.8,109,i,1
Cc1cc(NC(=O)C23CC4CC(C2)CC(n2cnc([N+](=O)[O-])n2)(C4)C3)no1,nt,nt,1,nt,103,i,1.1
Cc1ccc(NC(=O)/C(=C\c2ccccc2)NC(=O)/C=C/c2ccccc2)cc1,-132,149,2,-0.5,102,i,0.94
COc1ccc(CN(Cc2cc3cccc(C)c3[nH]c2=O)C(=O)N(C)C)cc1,-14,99,7,-2.2,94,i,0.86
COc1ccc(OC)c(N(CC(=O)Nc2cccnc2)S(=O)(=O)c2ccc(OC)c(OC)c2)c1,-236,75,-4,-3.6,85,i,0.9
Cc1ccc(-c2nc(C)sc2CC(=O)Nc2cccc(C)c2C)cc1,-79,101,13,-0.3,104,i,1.1
O=C(NCCCN1CCOCC1)c1cc2c(=O)[nH]c3ccccc3c2s1,-16,113,-15,-0.6,99,nt,nt
Cc1nc2c(-c3ccc(F)cc3)c(C)nn2c(C)c1CCC(=O)Nc1ccc(F)cc1F,nt,nt,nt,nt,93,i,1.1
CC(=O)Nc1ccccc1NC(=O)c1cccc2ccccc12,-20,70,-2,-0.3,96,i,1.1
Cc1cc2nc3c(c(C(F)(F)F)n2n1)CCCC3,0,132,0,nt,98,i,0.98
O=S(=O)(Nc1ncccn1)c1ccc(NS(=O)(=O)c2cccc(Cl)c2Cl)cc1,nt,nt,1,nt,101,i,0.96
Cc1ccc(C2CC(=O)c3cnc(N4CCN(c5ccccc5)CC4)nc3C2)cc1 (stereo not given),-21,148,12,-1.5,112,i,0.87
CCn1c2ccccc2c2nnc(NN)nc21,23,88,-11,-0.9,104,i,0.96
O=C(CN(Cc1cccs1)C(=O)CCC(=O)Nc1ccccn1)NCc1ccccc1,nt,nt,-4,nt,104,i,0.92
O=C(COC(=O)Cc1c(Cl)cccc1Cl)Nc1ccc(OC(F)(F)F)cc1,40,105,-11,-1.1,96,i,1.1
Nc1nnc(SCC(=O)N2CCc3ccccc32)n1-c1ccccc1,-23,116,-3,-1.8,110,i,0.86
Cc1ccc(C(=O)N(c2c(C)n(C)n(-c3ccccc3)c2=O)C(C)C)cc1,26,151,-5,-1.6,101,i,0.9
Fc1ccc(N2CCN(Cc3c[nH]c4ccccc34)CC2)cc1,nt,nt,nt,nt,87,i,0.77
Cc1ccc(/C=C/S(=O)(=O)N2CCC(C(=O)O)CC2)cc1,nt,nt,1,-0.4,119,i,1

# Retrieved by structure from the list above, 2 records:
SMILES,Insulin prom inh,Insulin prom inh cell count,PKD1 kinase inh,GALR2 agonist,RGS16-Gao,HSV augment,HSV augment primary fold
CCOC(=O)c1cc(C(=O)OCC)cc(-n2c(C)cc(C(=O)CN3CCOCC3)c2C)c1,27,56,-15,-0.8,109,i,1
CCOC(=O)N1CCN(c2c(NCC3CCCO3)c(=O)c2=O)CC1 (stereo not given),nt,nt,-4,-1.1,101,i,0.77

# Next structures.
SMILES,Insulin prom inh,Insulin prom inh cell count,PKD1 kinase inh,GALR2 agonist,RGS16-Gao,HSV augment,HSV augment primary fold
CCCCn1c(-c2nonc2N)nc2ccccc21,-29,173,-3,-1.5,110,i,0.85
Cc1cc(C)nc(-n2nc(C)cc2NC(=O)CN2CCCC2)n1,nt,nt,11,nt,102,i,1
Cc1ccc(NCCc2ccc(C)nc2)cc1,75*,153*,5,-3.5,108,i,0.98
CCN(CC)C(=O)c1[nH]cnc1C(=O)N[C@@H](C)C(=O)OC(C)(C)C,nt,nt,-10,nt,98,i,1.2
O=C(Oc1ccccc1)c1ccc(NC(=O)c2ccco2)cc1,25,100,-4,0.5,89,nt,nt
O=C(CSc1nnnn1C1CCCCC1)N1c2ccccc2Sc2ccccc21,4,112,-3,0.3,109,i,1.1
CCN(CC)S(=O)(=O)c1cc(C(=O)N(C)CC(=O)Nc2ccc(Cl)cc2)ccc1Cl,nt,nt,4,0.2,108,i,0.68
O=C(c1ccc(S(=O)(=O)N2CCCCC2)cc1)N1CCCc2ccccc21,47,170,0,-0.6,107,i,1.1
O=C(c1noc2c1CCCC2)N1CCN(Cc2ccccc2)CC1,nt,nt,-11,-3.4,106,i,0.92
Cc1ccc(CCC(=O)Nc2ccccc2F)s1,0,90,1,nt,99,i,0.95
CN=C1SC(CC(=O)Nc2ccc(C(C)=O)cc2)C(=O)N1C (stereo not given),-124,88,-5,-2.7,nt,i,0.89
CN1CCN(CCC(=O)Nc2ccc(Br)cc2)CC1,nt,nt,5,nt,102,i,0.99
C=CCNc1oc(-c2cccc3ccccc23)nc1C#N,-64,71,-6,2.5,99,i,1.1
O=C(CCCn1c(=O)[nH]c2ccccc2c1=O)Nc1ccc(F)cc1,27,123,5,nt,99,i,0.95
COC(=O)C1CC(O)CN1C(=O)Nc1ccccc1 (stereo not given),nt,nt,2,nt,105,i,0.97
Cc1cccc(Oc2ncc(-c3ccc(Cl)cc3)cn2)c1,65,70,-16,-2.0,104,nt,nt
CC1CCCCN1C(=S)NC(=O)c1cccs1 (stereo not given),nt,nt,nt,nt,82,i,1
Cc1oc(CC(C)C)c(CN2CCCC2)c1C(=O)O,nt,nt,0,-0.9,99,i,0.79
CC(=O)NS(=O)(=O)c1ccc(N=NN2CCCCCC2)cc1,-80,35,-3,nt,103,i,0.89
Cc1cc(C)n(C(=O)CCC(=O)NCc2ccccc2)n1,nt,nt,6,-3.2,172,i,0.94
OCCOc1cccc(CN2CCC(CO)(CCOc3ccccc3)CC2)c1,nt,nt,1,nt,104,i,0.93
Cc1ccc(/C=C/C(=O)Nc2cccc3cccnc23)o1,0,145,3,-1.9,97,i,1.3
O=C(O/N=C\c1ccc(N2CCCCC2)c([N+](=O)[O-])c1)c1cccc(Cl)c1,nt,nt,0,-2.5,100,nt,nt
Nn1c(SCc2csc(-c3ccccc3)n2)nnc1-c1cccs1,-229,57,2,-3.8,102,i,0.89
CCOC(=O)/C(=C/C=C1\Sc2cc(OCC)c(OCC)cc2N1CC)C(C)=O,i,77,-6,nt,114,nt,nt
COc1ccccc1C(=O)NN=C1CCN(Cc2ccccc2)CC1,17,111,4,-1.0,50,i,0.93
CCCS(=O)(=O)N1CCCC(C(=O)NC2CCCCC2)C1 (stereo not given),nt,nt,-3,-0.5,101,i,1
Cc1ccc(CONC(=O)/N=C/N(C)C)cc1,-21,99,-1,-2.2,104,i,0.75
Cc1ccc(CSc2nnc(-c3ccccn3)n2N)cc1,nt,nt,nt,nt,96,i,1.1
CC(=O)Nc1ccc(OCC(O)Cn2nc(C)c(C(C)=O)c2C)cc1 (stereo not given),-9,91,-4,-0.2,103,i,0.97

# Arranged by count of non-hydrogen atoms (smallest number first): some entries from above.
SMILES,Insulin prom inh,Insulin prom inh cell count,PKD1 kinase inh,GALR2 agonist,RGS16-Gao,HSV augment,HSV augment primary fold
CC1CCCCN1C(=S)NC(=O)c1cccs1 (stereo not given),nt,nt,nt,nt,82,i,1
Cc1oc(CC(C)C)c(CN2CCCC2)c1C(=O)O,nt,nt,0,-0.9,99,i,0.79
Cc1ccc(CSc2nnc(-c3ccccn3)n2N)cc1,nt,nt,nt,nt,96,i,1.1
CC(=O)NS(=O)(=O)c1ccc(N=NN2CCCCCC2)cc1,-80,35,-3,nt,103,i,0.89
Nn1c(SCc2csc(-c3ccccc3)n2)nnc1-c1cccs1,-229,57,2,-3.8,102,i,0.89
COc1ccccc1C(=O)NN=C1CCN(Cc2ccccc2)CC1,17,111,4,-1.0,50,i,0.93
O=C(O/N=C\c1ccc(N2CCCCC2)c([N+](=O)[O-])c1)c1cccc(Cl)c1,nt,nt,0,-2.5,100,nt,nt
CCOC(=O)/C(=C/C=C1\Sc2cc(OCC)c(OCC)cc2N1CC)C(C)=O,i,77,-6,nt,114,nt,nt

# Next section:
SMILES,Insulin prom inh,Insulin prom inh cell count,PKD1 kinase inh,GALR2 agonist,RGS16-Gao,HSV augment,HSV augment primary fold
Cc1ccc(CN(C(=O)Cn2nnc3ccccc32)C(C(=O)NCc2ccco2)c2ccc(C)o2)cc1 (stereo not given),21,88,-1,-3.4,101,i,1
C/C(=N\O)C(=O)NCC1CCNCC1,-15,107,5,-1.9,196,i,1
COc1ccc2nnc(-c3ccc(C(F)(F)F)cc3)n2n1,nt,nt,nt,nt,94,i,0.94
CCOC(=O)c1[nH]c2ccccc2c1NC(=O)CN(C)C,-27,108,7,-1.3,100,i,0.85
CNC(=O)c1[nH]cnc1C(=O)Nc1ccccc1C,53,129,5,-2.2,104,i,0.95
O=C(CN1C(=O)CCS(=O)(=O)c2ccccc21)NCc1ccc2c(c1)OCO2,nt,nt,-8,-1.3,99,i,0.95
CCOC(=O)Cn1c(N2CCCCCC2)nc2c1c(=O)[nH]c(=O)n2C,nt,nt,-4,0.2,93,i,0.99
CC1=NN(c2cccc(C(=O)O)c2)C(=O)/C1=C\C=C\c1ccco1,-456,39,-1,-1.4,107,nt,nt
O=C1CN(C(=O)c2ccco2)C(c2ccc(F)cc2)c2cc(Cl)ccc2N1 (stereo not given),60,77,-9,-2.1,nt,i,1
O=C(Nc1cccc(F)c1)c1ccccc1-c1ccccc1,nt,nt,-11,-0.7,92,i,1.2
COc1ccc(C2C3=C(CC(C)(C)CC3=O)Nc3n[nH]c(C)c32)cc1 (stereo not given),nt,nt,0,-1.7,96,i,0.98
OC(CNCCCN1CCCCC1)COc1ccccc1 (stereo not given),-27,134,-16,-1.1,110,i,0.95
COc1ccc2c(c1)c(CC(=O)Nc1ccc(C(C)=O)cc1)c(C)n2C(=O)c1ccc(Cl)cc1,3,103,-10,0.2,103,i,0.9
CCCN1Cc2cccc(C(=O)NC3CCCC3)c2C1=O,94*,204*,-1,-1.6,97,i,0.92
COc1cccc(NC(=S)NNC(=O)Cn2nc(C(F)(F)F)cc2C)c1,-8,123,4,-0.3,99,i,0.97
CCc1cc2c3c(c1)/C(=C1/SC(N)=NC1=O)C(=O)N3C(C)(C)C=C2C,nt,nt,-7,-1.8,101,i,0.8
Cc1cccc(-n2ncc(C#N)c2-n2cccc2)c1,30,129,0,-1.0,102,i,1.1
Oc1ccc2cccnc2c1,-27,96,-6,-0.5,111,i,0.87
Cc1cccc(N2CCN(C(=O)c3ccc(N4CCCC4=O)cc3)CC2)c1C,nt,nt,-2,-0.8,104,nt,nt
CC(C)(C)c1ccc(/C=N/OCC(=O)NCc2ccccc2)cc1,20,110,-4,-0.8,102,i,0.87
O=C(Nc1nnc(SCc2ccccc2F)s1)c1ccco1,nt,nt,-3,0.3,140,i,1.2
CCOC(=O)c1ccc(NC(=S)N(CCCN2CCCCC2)Cc2ccco2)cc1,-38,94,7,0.5,109,i,0.99
CCc1nc(NC2CCCCC2)c(C#N)c2c1COC(C)(C)C2,-33,57,10,0.1,94,i,0.86
COC(=O)[C@H](CCSC)NC(=O)Nc1ccc(C(C)=O)cc1,nt,nt,16,-0.6,98,i,1.1
CCCn1c(O)c(N=N)c2ccccc21,nt,nt,3,nt,107,i,0.94
OCCCCNCc1cc(Br)ccc1OCc1ccccc1F,nt,nt,7,nt,96,i,0.92

# Screening data deposited in PubChem by several laboratories.
